# From PubChem
# ALR H2O2 inh: blocks human ALR sulfhydryl oxidase activity | purified ALR, DTT oxidation, H2O2 HRP-luminol luminescence | inhibition, % (no concentration beside the values) | 290,000 compounds, 3.8% hits;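 active = mean and each replicate at 75% or more; inconclusive = only one of the two met; inactive = neither met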;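 also: stock transfer was 7.5 nL into about 7.5 µL; 0% = neutral wells and 100% = wells with inactivated enzyme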
# Target sequence (P55789 whole entry, looked up): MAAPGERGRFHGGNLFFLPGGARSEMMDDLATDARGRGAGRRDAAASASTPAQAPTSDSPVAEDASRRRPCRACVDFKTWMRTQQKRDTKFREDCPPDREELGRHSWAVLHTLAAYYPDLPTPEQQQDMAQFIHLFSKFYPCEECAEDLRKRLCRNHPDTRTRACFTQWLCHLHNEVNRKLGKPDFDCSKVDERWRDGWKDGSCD
# HNF4A DNA FP: change in binding of human HNF4 alpha to DNA. P41235. HNF4a-FITC DNA binding, fluorescence polarization, 1 h. activity change, % at 10 µM. 360,000 compounds, 0.3% hits. AID 1224865; in the data active = activity change above about 30%, passing the limit was not always enough;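 also: controls were the assay level and a saturating level of protein; the project sought stronger binding though the title names inhibitors; some compounds called inactive have numbers as strong as hits; positive values seem to mean higher polarization but the record does not say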
# Target sequence (P41235 whole entry, looked up): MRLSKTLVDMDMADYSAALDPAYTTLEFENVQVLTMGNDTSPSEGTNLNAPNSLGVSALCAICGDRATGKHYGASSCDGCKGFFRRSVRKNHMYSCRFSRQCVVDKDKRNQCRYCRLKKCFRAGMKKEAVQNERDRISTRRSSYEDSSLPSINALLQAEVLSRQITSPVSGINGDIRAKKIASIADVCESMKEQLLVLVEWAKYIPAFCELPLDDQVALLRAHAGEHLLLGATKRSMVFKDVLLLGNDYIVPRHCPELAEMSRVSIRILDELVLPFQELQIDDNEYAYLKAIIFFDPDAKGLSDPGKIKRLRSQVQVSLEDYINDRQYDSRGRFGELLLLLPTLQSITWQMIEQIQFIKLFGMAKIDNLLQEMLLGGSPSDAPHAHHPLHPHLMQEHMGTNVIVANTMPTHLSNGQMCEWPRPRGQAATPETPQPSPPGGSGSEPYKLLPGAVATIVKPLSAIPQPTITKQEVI
# B2AR ag: activates human beta-2 adrenergic receptor causing internalization; P07550; Am2.2-beta2AR cells, FAP receptor internalization, flow cytometry; reference of the scale not given here; response, % (no concentration beside the values); 340,000 compounds, 0.43% hits; AID 504454;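 active = response above a set limit, near 3 SD of response in nonfluorescent compounds, cut at about 42% in these data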;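 also: stock transfer was 100 nL into about 11 µL; a reference agonist was the positive control; negative values mostly stem from fluorescent compounds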
# Target sequence (P07550 whole entry, looked up): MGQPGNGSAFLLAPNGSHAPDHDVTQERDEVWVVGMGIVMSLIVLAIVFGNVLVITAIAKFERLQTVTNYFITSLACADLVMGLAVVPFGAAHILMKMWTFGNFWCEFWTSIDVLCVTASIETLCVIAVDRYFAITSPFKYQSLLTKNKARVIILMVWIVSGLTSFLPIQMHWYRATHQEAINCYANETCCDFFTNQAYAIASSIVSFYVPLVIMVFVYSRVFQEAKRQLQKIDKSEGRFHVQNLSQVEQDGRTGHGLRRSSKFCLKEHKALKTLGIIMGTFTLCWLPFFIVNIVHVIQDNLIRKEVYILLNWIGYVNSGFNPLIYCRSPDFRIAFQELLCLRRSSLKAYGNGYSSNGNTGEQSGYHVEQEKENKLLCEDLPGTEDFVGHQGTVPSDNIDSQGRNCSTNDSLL
# RanGTP-Impb inh: disruptors of Ran-importin-beta complex formation – biochemical, FRET, CFP-Ran, YFP-importin-beta, homogeneous, primary screen; AID 2216; cell-free CFP-Ran/YFP-importin-beta FRET ratio; 300,000 compounds, 1.1% hits; inhibition, % (test concentration not listed);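 active = most replicates above 15%; inconclusive = exactly half above 15%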;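 also: 0% = DMSO wells and 100% = Ran loaded with GDP instead of GTP; wells of about 40 µL received 100 nL stock; the first replicate is given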
# Vif A3G: HIV-1 Vif–A3G interaction blockers – biochemical, TR-FRET, GST-Vif 1-94, biotin-A3G peptide, dose response retest, primary screen (AID 1117319); TR-FRET GST-Vif / biotin-A3G peptide binding; higher % means a stronger effect; test concentration not given here; strong numbers were not always called active; inhibition, %; hits with a dose series show IC50 in µM; 260,000 compounds, 0.57% hits;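 active = above the screen mean plus three standard deviations and confirmed in dose response; inconclusive = results disagree or hit not tested in dose response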;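 also: Vif residues 1-94 fused to GST binding biotinylated APOBEC3G peptide 110-148; 0% = full assay without inhibitor and 100% = GST in place of GST-Vif; retest series ran down from 100 µM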
# LANA-H2A inh: blocks KSHV LANA binding to histone H2A/H2B. cell-free LANA-H2A/H2B peptide, fluorescence polarization. 320,000 compounds, 0.6% hits. Q9QR71. inhibition, % (test concentration not listed). AID 2629; in the data active = inhibition mostly above about 10%, no sharp cut-off; inactive = mostly below about 6.7%;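 also: stock transfer was 7.5 nL into about 10 µL; 0% = median of vehicle wells and 100% = median of positive control wells; one replicate is shown; the record names a cut of 25% in any replicate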
# Calb FLC: C. albicans growth modulation with fluconazole; 300,000 compounds, 0.57% hits; growth inhibition, % (no concentration beside the values); AID 1979; C. albicans CaCi-2 (fluconazole-resistant clinical isolate) + fluconazole, Alamar Blue growth, 48 h;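 active = most replicates above 75%; inconclusive = exactly half above 75%; inactive = most below 75%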;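 also: all wells also contain fluconazole at 8 µg/ml as a sub-toxic cotreatment; 0% = median of DMSO wells and 100% = median of geldanamycin control wells; wells of about 8 µL received 7.5 nL stock; the first replicate is given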
# Active calls of the source: *; ? = inconclusive; / = no result given.
SMILES,ALR H2O2 inh,HNF4A DNA FP,B2AR ag,RanGTP-Impb inh,Vif A3G,LANA-H2A inh,Calb FLC
COc1cc(/C(C#N)=C/c2ccccc2)c([N+](=O)[O-])cc1OC,-18,-0.7,8,0.1,-1%,11,-28
Cc1cc(=O)oc2cc(OCC(=O)NCc3ccco3)ccc12,/,4.0,6,-1.1,14%,5.1,12
COc1ccc(C2N(S(=O)(=O)c3ccccc3)CCN2S(=O)(=O)c2ccc(C)cc2)cc1 (stereo not given),0,-0.5,-17,-8.3,0%,-4.8,3
N/C(=N\OC(=O)CC(c1ccccc1)c1ccccc1)c1cccnc1,2,0.2,11,2.1,2%,0.5,16
CCOC(=O)/C=C1\SCC(=O)N1CC(O)CN1C(=O)CS/C1=C/C(=O)OCC (stereo not given),/,-0.7,-4,/,0%,/,/
CCOc1ccccc1C(=O)N1CCN(c2ccc(C(F)(F)F)cn2)CC1,-2,5.6,-5,?,/,-9.1,-55
COc1ccc(NC(=O)N2CCCC2C(=O)NCc2ccc(C)cc2)cc1 (stereo not given),1,3.0,4,-0.1,-15%,-1.1,-4
O=C1c2ccccc2N[C@@H]2C=CC[C@@H]2N1O,/,3.1,-5,/,-2%,/,/
C=CCn1ccc(=O)nc1SC,/,0.8,-3,/,-10%,/,/
Cc1ccc(/C=C/C(=O)c2ccc(N3CCOCC3)cc2)s1,-14,13,0,-8.3,10%,3.6,29
Cc1ccc(NC2=C(N3CCCCC3)C(=O)c3ccccc3C2=O)cc1,-29,-1.0,-4,3.4,-3%,3.3,24
CCOC(=O)c1csc(NC(=O)c2cc(=O)c3ccccc3o2)n1,/,-0.7,-7,1.7,-6%,2.2,41
CCOC(=O)c1[nH]c(C=O)c(C(=O)OCC)c1C,3,-1.1,7,4.1,4%,-6.5,2
COc1ccc(N2CCN(C(=O)c3oc4ccccc4c3NC(=O)CCc3cc(OC)no3)CC2)cc1,4,0.4,0,-1.3,/,0.2,7
Cc1[nH]c2ccccc2c1SCC(=O)NNC(=O)Nc1ccc(OC(F)(F)F)cc1,69,1.4,-11,-0.3,-5%,-17,13
COc1ccc(OC)c(CNC(=O)C2CCCN(c3nc4ccccc4o3)C2)c1 (stereo not given),-14,1.5,14,3.5,14%,-3.6,?
Cc1ccccc1NC(NC(=O)c1cccnc1)C(Cl)(Cl)Cl (stereo not given),-3,3.4,-3,-3.7,-5%,0.1,-4
Cc1ccccc1N1CC(c2nc3ccccc3[nH]2)CC1=O (stereo not given),-11,-3.5,4,/,7%,-2.2,-9
O=C(CSc1cn(CCNC(=O)c2ccccc2)c2ccccc12)NCC1CCCO1 (stereo not given),36,-1.7,-7,1.7,/,-2.0,-4
CC(C)[C@H](NC(=O)CCCn1nnc2ccccc2c1=O)C(=O)O,/,-1.0,3,1.2,-2%,-2.4,-1
N#C/C(=C\c1cccnc1)c1ccccc1[N+](=O)[O-],-5,-2.8,2,7.7,/,1.9,-10
O=C(NC1CCCC1)C1CC1c1ccccc1 (stereo not given),2,-1.8,5,-0.9,3%,4.2,-13
O=C1C(C=Nc2ccccc2)=C(O)c2ccccc21,-3,-1.2,-10,0.3,7%,-0.3,-3
O=C1CC(NCc2ccccc2)C(=O)N1c1ccc(F)cc1 (stereo not given),/,-0.9,2,/,6%,/,/

# Record cards, as listed above. Order of values: ALR H2O2 inh	HNF4A DNA FP	B2AR ag	RanGTP-Impb inh	Vif A3G	LANA-H2A inh	Calb FLC
# O=C1C(C=Nc2ccccc2)=C(O)c2ccccc21 is listed with -3	-1.2	-10	0.3	7%	-0.3	-3
# Cc1ccccc1NC(NC(=O)c1cccnc1)C(Cl)(Cl)Cl (stereo not given) is listed with -3	3.4	-3	-3.7	-5%	0.1	-4

# The list continues:
SMILES,ALR H2O2 inh,HNF4A DNA FP,B2AR ag,RanGTP-Impb inh,Vif A3G,LANA-H2A inh,Calb FLC
COC(=O)c1cc2cc(NS(=O)(=O)c3ccc(C)cc3)ccc2s1,-7,0.4,10,-4.8,1%,1.8,-12
COC(=O)C1=C(C)N(C2CCCCC2)C(=O)/C1=C\c1cccs1,0,0.7,-2,3.6,/,-1.4,-9
CSc1ccc(CN(C)CC(=O)NCc2ccc(F)cc2)cc1,-21,1.3,-10,-1.3,/,-0.9,29
COc1cccc(NC(=O)CN(C)CC(=O)Nc2ccc3c(c2)OCO3)c1,-3,-0.1,-3,/,1%,-2.3,/
Cc1ccc2nc(SCC(=O)N/N=C/c3ccco3)cc(C)c2c1,-5,-1.1,-7,?,4%,-1.5,-21
CC(=O)Nc1ccc(C(=O)CSc2nnnn2C)cc1,1,0.5,3,-1.4,6%,-12,1
O=C(N/N=C/c1cn(-c2ccccc2)nc1-c1cccs1)c1ccncc1,/,-2.2,3,-2.2,/,3.4,0
O=C1Nc2ccccc2C(O)(C(=O)NCc2ccc3c(c2)OCO3)N1c1ccc(Cl)c(Cl)c1 (stereo not given),-6,-2.9,1,0.6,-2%,8.8,-4
Cc1cc2[nH]c(=O)c(=O)[nH]c2cc1S(=O)(=O)Nc1cccc(F)c1,-3,-2.3,2,0.9,/,-0.7,5
CC(C)C(=O)Nc1nc(-c2ccc3c(c2)CCN3C(=O)C2CC2)cs1,-6,0.7,-6,1.6,-5%,-2.2,-1
O=C(O)C1(P(=O)(c2ccc(Cl)cc2)c2ccc(Cl)cc2)CC1,-8,2.0,-2,6.6,14%,5.8,-11
NC(=S)n1[nH]c(-c2ccc([N+](=O)[O-])cc2)c(N=Nc2ccccc2[N+](=O)[O-])c1=O,/,-29,6,/,2%,/,/
CCCn1c2ccccc2c2cnn(CC(=O)NCCN(CC)CC)c(=O)c21,3,-0.6,5,0.3,7%,-1.6,2
Cc1ccc(C(=O)NCc2ccco2)c(C)c1,4,-1.2,-2,4.6,/,-0.3,8
CCn1nc(C)cc1C(=O)N1CCCC(C(=O)c2ccc(OC)cc2C)C1 (stereo not given),/,-1.1,-1,1.7,-9%,-1.0,-5
Cc1sc2ncnc(N3CCN(S(=O)(=O)c4ccccc4)CC3)c2c1C,-13,0.1,13,/,/,2.3,/
O=C(CC12CC3CC(CC(C3)C1)C2)NC(=S)Nc1ccc(CN2CCOCC2)cc1,0,-1.2,-7,3.6,-11%,2.7,-34
Cc1ccc(CCNC(=O)CCS(=O)(=O)c2ccc3nc(C)sc3c2)cc1,48,0.6,-7,?,/,-2.0,3
O=C(N1CCCCC1)C1(c2ccccc2)CCOCC1,-3,-1.8,7,-2.8,1%,0.6,-21
O=C(NCc1ccccn1)c1ccc(Cn2c(=S)[nH]c3ccccc3c2=O)cc1,-1,1.7,-7,6.2,-17%,7.2,2
COc1ccc(SC[C@H](C)CN2CC[C@H](C(C)(C)C)CCC2=O)cc1,99*,-3.5,-4,/,/,3.3,/
CC(C)CCNC(=O)CN(Cc1ccccc1)C(=O)CCC(=O)Nc1nccs1,-7,-0.5,-7,4.3,/,-6.8,-15
O=C(NCc1ccc(OC(F)(F)F)cc1)C1CC(c2ccccc2C(F)(F)F)=NO1 (stereo not given),/,1.2,-4,6.9,-11%,0.5,0
N#CCSCC(=O)Nc1ccccc1,-19,3.9,-11,/,0%,2.3,/
COc1ccc(CNC(=O)C2CCN(C(=O)[C@@H](CC(C)C)NC(=O)OC(C)(C)C)CC2)cc1,/,-2.6,2,1.4,-1%,-2.6,-6
Cc1ccc(Cn2cccc(NC(=O)NCc3ccccc3)c2=O)cc1,-11,0.5,-6,-2.0,8%,0.8,-3
O=C(NNC(=O)C1CC1c1ccccc1)Nc1ccccc1 (stereo not given),/,3.0,-9,-1.7,-3%,-3.6,-1
CC(=O)Nc1ccc(OS(=O)(=O)c2ccc([N+](=O)[O-])cc2)cc1,/,2.3,-5,9.2,3%,-1.1,16
COC(=O)C1=C(C)OC(N)=C(C#N)C1c1ccccc1 (stereo not given),3,5.4,0,3.3,18%,-1.9,10
Cc1cc(Cl)cc(Cl)c1CNc1c([N+](=O)[O-])c(=O)oc2ccccc12,-11,-2.0,-7,-3.5,-8%,-3.3,-11
Cc1ccc(OCC(=O)NS(=O)(=O)c2ccc(Cl)cc2)cc1,23,-0.8,-6,-0.9,/,1.3,4
CCc1nnc(NC(=O)Cc2ccc(S(=O)(=O)N3CCCCC3)cc2)s1,-15,-3.5,2,/,5%,1.3,/
O=C(c1ccc(F)cc1)N1CCC(N2CCCCCC2)CC1,-10,0.8,-4,-1.7,16%,2.4,5
CCCCCC(=O)Nc1ccc(N2CCN(S(C)(=O)=O)CC2)cc1,-8,2.8,7,2.1,8%,1.4,-3
C/C(=N\NC(=O)CN(c1ccccc1Br)S(C)(=O)=O)c1cccs1,-9,-3.0,-3,-2.9,7%,-1.3,-14
C/C(CC(=O)Nc1cc(Cl)ccc1C)=N\NC(=O)C(=O)N1CCCC1,20,2.6,-1,-0.6,/,-2.8,-1
COc1ccc(OCC(=O)N(Cc2sccc2C)C2CCS(=O)(=O)C2)cc1 (stereo not given),-8,2.6,-3,-4.8,/,3.7,-27
N=c1oc2cc(O)ccc2cc1C(=O)Nc1nc2ccccc2s1,-6,31,-12,136*,-4%,-488,-2
CCCCn1c(N)c(N(CC(C)C)C(=O)c2ccc(-n3c(C)ccc3C)cc2)c(=O)[nH]c1=O,/,8.7,-5,3.0,2%,0.3,-2
Nc1cccc(C(=O)OCC(=O)Nc2cccc3c2C(=O)c2ccccc2C3=O)c1,17,-61,16,1.4,1%,-1.9,7
CN1CC[C@]23c4ccccc4N[C@H]1[C@]21CCN(C)[C@H]3Nc2ccccc21,-3,-0.3,0,/,/,-1.8,/
Cc1ccc(S(=O)(=O)N2CCC(C(=O)N/N=C/c3ccccc3[N+](=O)[O-])CC2)cc1,1,-1.6,-4,-3.1,-7%,4.3,4
NS(=O)(=O)c1ccc(-n2nncc2C23CC4CC(CC(C4)C2)C3)cc1,-5,-1.6,2,3.2,-4%,1.0,5
CCN1CCN(CC(=O)Nc2c(C(=O)OC)[nH]c3cccc(Cl)c23)CC1,/,/,/,-0.3,6%,/,-15
NC(=O)c1ccccc1NC(=O)CSC1=NCCS1,5,0.1,1,/,-8%,-3.5,/
COc1ccc(-n2c(O)c(/C=N/NS(=O)(=O)c3ccc(C)cc3)c3ccccc3c2=O)cc1OC,/,86*,-362,0.2,-4%,/,-10
CC(C)CCNC(=O)c1nn(Cc2ccccc2)c(=O)c2ccccc12,-3,-0.9,-9,-0.1,/,-2.7,2
O=C(CNc1ccc(F)cc1Cl)Nc1cccc(S(=O)(=O)N2CCCCC2)c1,0,1.6,0,/,/,-0.7,/
O=C(CSc1nnc(NC(=O)C2CCC2)s1)Nc1ccccc1Br,-1,-1.9,0,1.0,12%,-1.0,-13
Cc1ccsc1CN(C)C(=O)CCc1nnc(COc2ccccc2)o1,/,1.3,-3,1.6,2%,-4.5,3
CCOC(=O)C1CCCN(C2CC(=O)N(c3ccc(C)cc3)C2=O)C1 (stereo not given),0,-4.0,6,-0.7,10%,0.6,-12
CC(C)(C)C(=O)Nc1c2c(nn1-c1ccc(F)cc1)CSC2,-1,0.3,4,0.5,-5%,-1.5,1
COc1ccc([N+](=O)[O-])cc1N(CC(=O)N1CCCC1)S(C)(=O)=O,-6,-0.7,-1,-0.1,-5%,3.8,23
CN(C)CCNc1nc2c(c(=O)[nH]c(=O)n2C)n1CCCc1ccccc1,24,0.9,-10,1.7,2%,4.1,10
O=C(Cc1cccc(C(F)(F)F)c1)NCC(c1ccco1)N1CCCCC1 (stereo not given),3,9.6,-11,0.5,-8%,8.1,-4
Cc1cc(=O)oc2cc(O)cc(OCc3ccccc3)c12,/,0.6,-7,/,-6%,/,/
Cc1cc(=O)n2[nH]c(CCC(=O)O)nc2n1,-3,0.5,-4,-1.4,1%,-2.9,-1
CC1(C)Cc2c(c(N3CCCC3)nc3sc(C(=O)Nc4ccccc4)c(N)c23)CO1,0,-0.5,-3,-7.8,/,4.4,4
